Screens deposited in PubChem by several laboratories.
Insulin prom inh = TRM-6 insulin promoter activity inhibition; TRM-6 cells (human fetal islet line), insulin promoter-eGFP reporter, imaging; reporter expression induced with tamoxifen; inhibition, % at 2 µM; 0.9% of 130,000 active;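 active = inhibition above the mean plus 3 SD, with well images judged a real hit on visual review, cut at about 60% in these data, passing the limit was not always enough; inconclusive = inhibition over the cutoff but images rejected on review; inactive = inhibition not above the cutoff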
RGS16-Gao HTS = modulates binding between human RGS16 and Galphao; binding response (% of control), % at 10 µM; O15492+P09471; bead-based flow cytometry RGS16-Galphao binding, fluorescence; actives lie on both sides; AID 1441; 0.38% of 220,000 active;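 active = below 25% or above 175%, edge rows of some plates excepted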;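 note: Galphao activated by GDP with aluminum fluoride before binding; 100% = wells without compound and 0% = beads without RGS; some results beyond the cut were filed as inactive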
Target sequence (O15492 whole entry, looked up): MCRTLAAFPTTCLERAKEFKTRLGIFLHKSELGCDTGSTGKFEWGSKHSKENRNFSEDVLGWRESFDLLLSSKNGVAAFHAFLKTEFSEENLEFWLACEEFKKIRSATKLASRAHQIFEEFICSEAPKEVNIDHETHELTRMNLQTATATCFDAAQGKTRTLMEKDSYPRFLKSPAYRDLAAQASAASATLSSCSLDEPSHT
Target sequence (P09471 whole entry, looked up): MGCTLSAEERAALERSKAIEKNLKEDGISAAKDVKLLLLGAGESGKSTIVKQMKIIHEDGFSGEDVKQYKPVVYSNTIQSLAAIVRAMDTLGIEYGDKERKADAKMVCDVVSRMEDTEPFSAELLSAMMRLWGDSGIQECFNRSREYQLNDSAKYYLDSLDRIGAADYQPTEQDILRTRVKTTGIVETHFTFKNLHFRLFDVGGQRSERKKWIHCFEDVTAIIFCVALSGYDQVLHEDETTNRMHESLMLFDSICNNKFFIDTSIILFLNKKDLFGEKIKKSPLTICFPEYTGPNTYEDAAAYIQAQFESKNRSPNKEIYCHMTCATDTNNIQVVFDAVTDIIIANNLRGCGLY
PKD1 inh = blocks activity of human protein kinase D1; Q15139; PKD1 kinase fluorescence polarization assay; inhibition, %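 (about 10 µM by stock and volumes)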; 0.056% of 200,000 active; AID 797;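 active = inhibition of 50% or more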;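 note: controls were vehicle for no effect and a reference inhibitor for full effect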
GALR2 agonist = agonists of human galanin receptor 2 (GALR2) | GALR2-expressing cells, agonist activation read-out | activation, %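 (tested at 5 µM)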 | 0.48% of 140,000 active;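 active = above mean plus 3 SD of all compounds, about 5% in these data, not always enough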;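 note: 0% = vehicle buffer wells and 100% = reference agonist at full effect; tested in CHO reporter cells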
Target sequence (O43603 whole entry, looked up): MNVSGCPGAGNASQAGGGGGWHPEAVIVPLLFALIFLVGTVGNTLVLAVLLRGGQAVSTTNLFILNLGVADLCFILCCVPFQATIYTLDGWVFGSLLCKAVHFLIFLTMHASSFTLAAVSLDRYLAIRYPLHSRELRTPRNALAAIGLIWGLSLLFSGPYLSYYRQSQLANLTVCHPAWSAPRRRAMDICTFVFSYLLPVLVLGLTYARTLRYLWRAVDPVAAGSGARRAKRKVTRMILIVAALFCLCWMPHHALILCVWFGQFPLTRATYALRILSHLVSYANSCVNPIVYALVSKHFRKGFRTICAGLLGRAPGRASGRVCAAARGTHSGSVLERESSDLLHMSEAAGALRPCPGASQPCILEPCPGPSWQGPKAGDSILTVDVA
HSV augment = HSV replication enhancement | 0.005% of 220,000 active | maximum fold increase | HSV replication augmentation in cells, fold increase | AID 1956;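 active = peak rise of 1.5-fold or more in the series; inconclusive = self-fluorescent or not available for retest; tested in PC3 cells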;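 note: first round at 10 µM; read as green reporter fluorescence; hits show the peak of a series up to 25 µM; 1 = signal of infected wells without compound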
Insulin prom inh cell count = further read-out of Insulin prom inh, marked with its call; normalized cell count, %; measured here: cell count, toxicity; reference of the scale not given here;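 cells exposed to compound for 48 h; stained nuclei by imaging scaled within each plate; lower means fewer cells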
HSV augment primary fold = also measured in HSV augment; calls as there; fold increase; compound at 10 µM; measured here: primary screen fold increase 10 uM; tested in PC3 cells;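 GFP signal in the first replicate; 1 = infected wells without compound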
Numbers without * were called inactive.

Screening Cc1ccc(S(=O)(=O)NCCC(=O)Nc2ccc3c(c2)OCO3)cc1 returned Insulin prom inh -69, RGS16-Gao HTS 94, PKD1 inh -8, GALR2 agonist -0.2, HSV augment inactive, Insulin prom inh cell count 71 and HSV augment primary fold 1.
CCCCOc1nc2ccccc2nc1C(C#N)C(=O)NC1CCCCC1 (centres undefined) was read as Insulin prom inh 36, RGS16-Gao HTS 107, PKD1 inh -3, GALR2 agonist -0.7 and Insulin prom inh cell count 99.
For CS(=O)(=O)c1[nH]nc(-c2ccccc2Cl)c1C#N the results were RGS16-Gao HTS 103, HSV augment inactive and HSV augment primary fold 0.98.
For CCOC(=O)c1c(NC(C)=O)sc2c1C1CCN2CC1 the results were Insulin prom inh 50, PKD1 inh -2, GALR2 agonist 0.2, HSV augment inactive, Insulin prom inh cell count 73 and HSV augment primary fold 0.94.
`CC(C)Oc1ccc(C2CC(=O)NC3=C2C(=O)CCC3)cc1` (centres undefined) gave Insulin prom inh -24, RGS16-Gao HTS 99, PKD1 inh -12, GALR2 agonist -0.3, HSV augment inactive, Insulin prom inh cell count 80 and HSV augment primary fold 1.
Screening CCN(CC)C(=S)Nc1ccc2nc3n(c(=O)c2c1)CCCCC3 returned Insulin prom inh 33, RGS16-Gao HTS 95, PKD1 inh -6, HSV augment inactive, Insulin prom inh cell count 107 and HSV augment primary fold 0.98.
Screening CCOc1ccccc1NC(=O)CN1C(=O)C(C)SC(C)C1=O (centres undefined) returned Insulin prom inh -78, RGS16-Gao HTS 44, PKD1 inh 3, HSV augment inactive, Insulin prom inh cell count 33 and HSV augment primary fold 0.97.
Screening COCCCn1c(=N)c(C(=O)NCC2CCCO2)cc2c(=O)n3ccccc3nc21 (centres undefined) returned RGS16-Gao HTS 99, PKD1 inh -6, GALR2 agonist 19*, HSV augment inactive and HSV augment primary fold 1.
COc1ccc(Nc2nc3ccc(C)cc3cc2C#N)c(OC)c1 was read as RGS16-Gao HTS 100, PKD1 inh 2, GALR2 agonist -0.6 and HSV augment inconclusive.
Screening COc1ccc(-c2noc(CCC(=O)N3CCN(c4cccc(C(F)(F)F)c4)CC3)n2)cc1 returned Insulin prom inh -43, RGS16-Gao HTS 104, PKD1 inh -10, GALR2 agonist -1.9, HSV augment inactive, Insulin prom inh cell count 112 and HSV augment primary fold 0.77.
Screening O=C(O)c1ccccc1Nc1cccc(C(F)(F)F)c1 returned Insulin prom inh 14, RGS16-Gao HTS 68, PKD1 inh -16, GALR2 agonist -0.9 and Insulin prom inh cell count 49.
Screening O=C(O)c1ccccc1N=Cc1c(O)n(-c2nccs2)c(=O)c2ccccc12 returned RGS16-Gao HTS 98, HSV augment inactive and HSV augment primary fold 0.99.
Screening CC(C)NC(=O)CSc1nnc(-c2ccncc2)n1-c1ccccc1 returned Insulin prom inh 35, RGS16-Gao HTS 102, PKD1 inh -10, GALR2 agonist -2.2, HSV augment inactive, Insulin prom inh cell count 143 and HSV augment primary fold 0.78.
For Cc1ccc(C(=O)OCC(=O)c2c[nH]c3ccccc23)cc1S(=O)(=O)N1CCCCC1 the results were Insulin prom inh -14, RGS16-Gao HTS 29, PKD1 inh 3, GALR2 agonist -0.7, HSV augment inactive, Insulin prom inh cell count 73 and HSV augment primary fold 0.95.
`COc1cccc(CNC(=O)C2CCN(c3cnccn3)CC2)c1` gave Insulin prom inh 17, RGS16-Gao HTS 159, PKD1 inh 2, GALR2 agonist -0.8, HSV augment inactive, Insulin prom inh cell count 71 and HSV augment primary fold 0.78.
For COC(=O)C1C/C(=N\NS(=O)(=O)c2ccc(C)cc2)c2sccc2C1 (centres undefined) the results were Insulin prom inh -14, RGS16-Gao HTS 107, PKD1 inh -5, GALR2 agonist -0.4, HSV augment inactive, Insulin prom inh cell count 186 and HSV augment primary fold 0.97.
O=C1c2ccccc2C(=O)N1CCc1c[nH]c2ccccc12 was read as RGS16-Gao HTS 99, PKD1 inh 12, HSV augment inactive and HSV augment primary fold 0.96.
CCC(C)NC(=O)CN(c1cc(Cl)cc(Cl)c1)S(C)(=O)=O (centres undefined) was read as RGS16-Gao HTS 102, PKD1 inh 3, HSV augment inactive and HSV augment primary fold 0.88.
For O=C(CSc1nc2c(sc3ccccc32)c(=O)n1CCCN1CCOCC1)NC1CCCC1 the results were RGS16-Gao HTS 96, PKD1 inh -11, GALR2 agonist -0.4, HSV augment inactive and HSV augment primary fold 0.82.
For O=C(Nc1ccccc1C(F)(F)F)Nc1cccc2ccccc12 the results were RGS16-Gao HTS 92, PKD1 inh -3, GALR2 agonist -1.5, HSV augment inactive and HSV augment primary fold 0.94.
For COc1ccc(NC(=O)c2cc(-c3ccco3)nc3ccccc23)cc1S(=O)(=O)N1CCOCC1 the results were RGS16-Gao HTS 83, HSV augment inactive and HSV augment primary fold 0.94.
`COc1cc2c(c(OC)c1OC)CC(=O)N(C)CC2` gave Insulin prom inh 8, RGS16-Gao HTS 105, PKD1 inh 5, GALR2 agonist 0.2, HSV augment inactive, Insulin prom inh cell count 119 and HSV augment primary fold 0.95.
For O=C(CSCSCC(=O)Nc1ccc2c(c1)OCO2)Nc1ccc2c(c1)OCO2 the results were RGS16-Gao HTS 58, PKD1 inh 4, GALR2 agonist -1.6, HSV augment inactive and HSV augment primary fold 0.83.
`CC(=O)Nc1cccc(NC(=O)c2cc(C)on2)c1` gave Insulin prom inh 59, RGS16-Gao HTS 96, PKD1 inh -4, GALR2 agonist -3.6, HSV augment inactive, Insulin prom inh cell count 188 and HSV augment primary fold 0.94.
CC(=O)Nc1ccc(NC2=C/C(=N/S(=O)(=O)c3cccs3)c3ccccc3C2=O)cc1 was read as Insulin prom inh -55, RGS16-Gao HTS 101, PKD1 inh -6, HSV augment inactive, Insulin prom inh cell count 51 and HSV augment primary fold 0.58.
For CCOC(=O)c1cnc2c(F)ccc(F)c2c1Sc1ccccc1 the results were RGS16-Gao HTS 89, HSV augment inactive and HSV augment primary fold 1.4.
`COc1ccccc1-n1c(-c2ccccc2)c[nH]c1=S` gave RGS16-Gao HTS 96, PKD1 inh -12, HSV augment inactive and HSV augment primary fold 1.1.
Screening COC(=O)c1ccc(C(=O)OC)c(NC(=S)N2CCCCC2C)c1 (centres undefined) returned Insulin prom inh 43, RGS16-Gao HTS 116, PKD1 inh -12, GALR2 agonist -0.2, HSV augment inactive, Insulin prom inh cell count 54 and HSV augment primary fold 0.95.
For Cc1ccc(-c2csnn2)cc1 the results were RGS16-Gao HTS 109, HSV augment inactive and HSV augment primary fold 1.1.
`CCOC(=O)c1[nH]c(C)c(C(=O)OCC)c1C` gave RGS16-Gao HTS 97, PKD1 inh -2, GALR2 agonist -2.5, HSV augment inactive and HSV augment primary fold 0.91.

By substructure, the compounds so far with a Cl atom.
For CS(=O)(=O)c1[nH]nc(-c2ccccc2Cl)c1C#N the results were RGS16-Gao HTS 103, HSV augment inactive and HSV augment primary fold 0.98.
CCC(C)NC(=O)CN(c1cc(Cl)cc(Cl)c1)S(C)(=O)=O (centres undefined) was read as RGS16-Gao HTS 102, PKD1 inh 3, HSV augment inactive and HSV augment primary fold 0.88.

Among those listed so far, these have a cyano group.
CCCCOc1nc2ccccc2nc1C(C#N)C(=O)NC1CCCCC1 (centres undefined) was read as Insulin prom inh 36, RGS16-Gao HTS 107, PKD1 inh -3, GALR2 agonist -0.7 and Insulin prom inh cell count 99.
For CS(=O)(=O)c1[nH]nc(-c2ccccc2Cl)c1C#N the results were RGS16-Gao HTS 103, HSV augment inactive and HSV augment primary fold 0.98.
COc1ccc(Nc2nc3ccc(C)cc3cc2C#N)c(OC)c1 was read as RGS16-Gao HTS 100, PKD1 inh 2, GALR2 agonist -0.6 and HSV augment inconclusive.

Continued.
`O=C(COc1ccccc1)NC(=S)Nc1ccc2c3c(cccc13)CC2` gave Insulin prom inh 11, RGS16-Gao HTS 119, PKD1 inh -1, GALR2 agonist -0.1, HSV augment inactive, Insulin prom inh cell count 117 and HSV augment primary fold 1.
Screening OCCC1CN(Cc2c(F)cccc2Cl)CCN1C1CCCC1 (centres undefined) returned RGS16-Gao HTS 92, PKD1 inh 0, HSV augment inactive and HSV augment primary fold 0.98.
Screening N=C1CCCN1CC(=O)c1ccc(Br)cc1 returned RGS16-Gao HTS 103, PKD1 inh 8, GALR2 agonist -0.7, HSV augment inactive and HSV augment primary fold 1.
Screening C/C(=N/NC(=O)c1cccnc1)C1=C(O)CC(C)(C)CC1=O returned Insulin prom inh 17, RGS16-Gao HTS 91, PKD1 inh -7, HSV augment inactive, Insulin prom inh cell count 87 and HSV augment primary fold 0.9.
Screening Cc1cc(C)c(S(=O)(=O)N2CCC(C(=O)NCc3ccc(Cl)cc3Cl)CC2)c(C)c1 returned Insulin prom inh 6, RGS16-Gao HTS 96, PKD1 inh -3, GALR2 agonist -3.0, HSV augment inactive, Insulin prom inh cell count 46 and HSV augment primary fold 0.88.
O=C(Oc1ccc([N+](=O)[O-])cc1)c1ccc(Cl)c(S(=O)(=O)N2CCCCC2)c1 was read as Insulin prom inh 46, RGS16-Gao HTS 132, PKD1 inh -6, GALR2 agonist -1.2, HSV augment inactive, Insulin prom inh cell count 65 and HSV augment primary fold 0.95.
`O=C(c1c[nH]c2ccccc12)N1CCN(c2ccccc2)CC1` gave RGS16-Gao HTS 99, PKD1 inh 5, HSV augment inactive and HSV augment primary fold 0.96.
Screening O=c1oc(-c2ccccc2)nc2sc3c(c12)CCCC3 returned Insulin prom inh -8, RGS16-Gao HTS 93, PKD1 inh 3, GALR2 agonist 0.1, HSV augment inactive, Insulin prom inh cell count 97 and HSV augment primary fold 0.82.
For O=C(Nc1ccccn1)Nc1cccs1 the results were RGS16-Gao HTS 89, PKD1 inh 0, GALR2 agonist -0.1, HSV augment inactive and HSV augment primary fold 1.
`COc1ccc(C(=O)O)cc1S(=O)(=O)NC(C)C` gave RGS16-Gao HTS 106, HSV augment inactive and HSV augment primary fold 1.1.
`C=CCNC(=S)NNC(=O)C(CCCC)CC(C)(C)O` (centres undefined) gave Insulin prom inh -207, RGS16-Gao HTS 100, PKD1 inh -4, GALR2 agonist -1.9, HSV augment inactive, Insulin prom inh cell count 67 and HSV augment primary fold 0.93.
Screening CCN(CC)S(=O)(=O)c1cccc2cc(C(=O)O)c(O)cc12 returned RGS16-Gao HTS 99, PKD1 inh -12, GALR2 agonist -0.8, HSV augment inactive and HSV augment primary fold 0.97.
Screening CC1Cc2cc(/C(O)=C3/C(=O)C(=O)N(CCCn4ccnc4)C3c3ccco3)ccc2O1 (centres undefined) returned Insulin prom inh -3, RGS16-Gao HTS 107, PKD1 inh -1, GALR2 agonist -1.8, HSV augment inactive, Insulin prom inh cell count 94 and HSV augment primary fold 0.92.
Screening COc1cc2c(C(=O)O)c(C)n(CC(C)C)c2c2ccccc12 returned Insulin prom inh -36, RGS16-Gao HTS -61, PKD1 inh -2, GALR2 agonist -1.1 and Insulin prom inh cell count 181.
Screening CCc1ccc2oc(-c3ccc(OC)cc3)cc(=Nc3cccc(C(=O)O)c3)c2c1 returned RGS16-Gao HTS 95, PKD1 inh -8, HSV augment inactive and HSV augment primary fold 0.92.
For COc1ccccc1C(=O)N1CCN(S(=O)(=O)c2ccccc2)CC1 the results were Insulin prom inh 10, RGS16-Gao HTS 93, PKD1 inh 0, GALR2 agonist -3.6, HSV augment inactive, Insulin prom inh cell count 123 and HSV augment primary fold 0.87.
For O=C1/C(=C/c2cccs2)Cc2ccccc21 the results were RGS16-Gao HTS 73, PKD1 inh 4, GALR2 agonist 0.5, HSV augment inactive and HSV augment primary fold 1.1.
Screening CCOc1cc(N2CCOCC2)c(OCC)cc1NC(=O)CN1CCc2ccccc2C1 returned RGS16-Gao HTS 100, PKD1 inh -13, GALR2 agonist -0.8, HSV augment inactive and HSV augment primary fold 0.92.
O=C1c2ccccc2C(=O)C12OC2c1ccc(Cl)cc1 (centres undefined) was read as Insulin prom inh 60, RGS16-Gao HTS 96, PKD1 inh 3, GALR2 agonist -1.4, HSV augment inactive, Insulin prom inh cell count 158 and HSV augment primary fold 0.98.
`CS(=O)(=O)N1CCc2cc(C(=O)N3CCOCC3)ccc21` gave Insulin prom inh 6, RGS16-Gao HTS 102, PKD1 inh 4, GALR2 agonist -3.0, HSV augment inactive, Insulin prom inh cell count 90 and HSV augment primary fold 0.99.
`CCOC(=O)c1nn(-c2ccc3c(c2)OCO3)cc1O` gave Insulin prom inh 22, RGS16-Gao HTS 105, PKD1 inh 2, GALR2 agonist -1.2, HSV augment inactive, Insulin prom inh cell count 79 and HSV augment primary fold 0.95.
